ClpP mod: qHTS Assay for Activators of ClpP. 1.9% of 340,000 active. Potency, µM (titrated, usually from 57.5 µM), for the others: at the highest dose activity change, negative = active. ATP-dependent Clp protease proteolytic subunit (Bacillus subtilis (strain 168)), P80244. purified B. subtilis ClpP, FRET peptide cleavage, 20 min; active = well fitted falling curve with a large enough effect; inconclusive = small, poorly fitted or top-dose-only effect; inactive = no such curve, though single readings can be large or run the other way; also: potency is read from the fitted curve at half-maximal effect; the source files actives as falling curves though it sought activators and does not explain the sign; nearly all actives have a fitted effect of over 65% in size; many hits overshoot -100%
Target sequence (P80244 whole entry, looked up): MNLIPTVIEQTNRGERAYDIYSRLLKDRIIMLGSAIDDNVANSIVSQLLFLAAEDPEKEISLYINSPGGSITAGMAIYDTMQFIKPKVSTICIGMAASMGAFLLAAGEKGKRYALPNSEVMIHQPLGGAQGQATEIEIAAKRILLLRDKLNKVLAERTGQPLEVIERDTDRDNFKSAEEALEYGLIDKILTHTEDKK
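Buffer: 100 mM Tris/HCl pH8, 100 mM KCl, 0.05% low protease BSA, 2.5% glycerol, 0.01% Tween-20. ClpP 10 microg/mL final; 20 min RT; delta FRET normalized to ADEP and DMSO controls.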
TRPML1 ag: qHTS for Agonists of the Human Mucolipin Transient Receptor Potential 1 (TRPML1); Mucolipin-1 (Homo sapiens), Q9GZU1; TRPML1-expressing cells, Ca2+ dye fluorescence, FDSS; host cell line not named in the record; reference of the full effect not given here; activation, % (no concentration beside the values); 0.12% of 410,000 active; AID 624414, 2012; in the data active = activation above about 50%; inconclusive = about 30% to 50%; inactive = below about 30%; also: 0% is about no effect; the text of the record puts the active cut at 80%
Target sequence (Q9GZU1 whole entry, looked up): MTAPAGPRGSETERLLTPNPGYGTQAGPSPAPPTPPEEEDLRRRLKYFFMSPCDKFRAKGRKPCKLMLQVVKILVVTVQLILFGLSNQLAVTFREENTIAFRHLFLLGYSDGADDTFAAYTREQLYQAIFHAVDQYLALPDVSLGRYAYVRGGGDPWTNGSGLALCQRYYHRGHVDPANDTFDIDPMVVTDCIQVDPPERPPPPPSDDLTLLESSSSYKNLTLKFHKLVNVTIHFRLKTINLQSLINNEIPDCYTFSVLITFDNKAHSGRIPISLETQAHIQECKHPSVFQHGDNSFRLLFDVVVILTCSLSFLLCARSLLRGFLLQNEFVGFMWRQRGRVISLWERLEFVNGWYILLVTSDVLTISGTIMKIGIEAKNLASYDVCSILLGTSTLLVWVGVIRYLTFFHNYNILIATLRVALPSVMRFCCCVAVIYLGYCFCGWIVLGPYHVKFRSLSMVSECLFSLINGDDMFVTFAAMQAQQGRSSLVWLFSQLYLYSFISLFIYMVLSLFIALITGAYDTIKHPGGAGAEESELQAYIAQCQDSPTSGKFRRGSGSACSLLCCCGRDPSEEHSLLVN
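Tetracycline-induced TRPML1-DL cells are seeded and incubated overnight before loading with a no-wash Ca2+ dye and quencher. Agonist activity is taken from the 110 s fluorescence read following compound pin-transfer on an FDSS, before EC80 54-4 challenge.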
gsp agonist: qHTS for Agonist of gsp, the Etiologic Mutation Responsible for Fibrous Dysplasia/McCune-Albright Syndrome: qHTS. gsp mutant cells, cAMP HTRF, 30 min; control for the full effect not named in the record. Potency, µM (top dose mostly 76.9 µM), without a hit: at the highest dose activation (cAMP increase), most hits filed as activators. 0.13% of 340,000 active; active = well fitted activation curve with a large enough effect; inconclusive = small, poorly fitted or top-dose-only effect, or another doubt; inactive = no such curve, though single readings can be large or run the other way; cell line not stated here;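 also: phosphodiesterase inhibitor Ro 20-1724 added with compounds to block cAMP breakdown; potency is read from the fitted curve at half-maximal effect; nearly all actives have a fitted effect of over 60% in size; about a fifth of the inactives were tested at one dose only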
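Cells in DMEM/10% FBS with G418 were pretreated with compounds in DMSO plus […] (300 uM stock) for 30 min at 37C. cAMP was measured by HTRF (cAMP-d2 plus anti-cAMP antibody-K) after 30 min at room temperature.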
TRPML1 blocker: qHTS for Inhibitors of the Human Mucolipin Transient Receptor Potential 1 (TRPML1); Mucolipin-1 (Homo sapiens), Q9GZU1; TRPML1-inducible cells, Ca2+ dye fluorescence, FDSS; stronger effect = lower value; inhibition of EC80 agonist-evoked calcium signal; activity change, negative = inhibition, % (no concentration beside the values); 0.02% of 390,000 active; in the data active means activity change below about -50%; inconclusive means about -30% to -50%; inactive means above about -30%;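 also: stimulus is agonist 54-4 at its EC80 concentration; % is scaled to controls: 0 for no effect and ±100 for the full control effect; compound concentration not given in the record; the text of the record puts the active cut at -80%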
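TRPML1-DL cells, Tet-induced overnight (~16 h, 37 °C) at 1,500 cells/well, were loaded with Ca8 no-wash dye plus quencher for 45-90 min at room temperature. Compounds were pinned during FDSS kinetic reading; agonist 54-4 at EC80 (4 uM final) then added.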
gsp antagonist: qHTS for Antagonists of gsp, the Etiologic Mutation Responsible for Fibrous Dysplasia/McCune-Albright Syndrome: qHTS | gsp-mutant cells, cAMP HTRF, 30 min; control for the full effect not named in the record | Potency, µM (series often up to 76.9 µM), inactives show at the highest dose activity change, negative = inhibition, usual class: inhibitors | 0.4% of 340,000 active; active = falling curve of any shape with a large fitted effect; inconclusive = falling curve, mostly with a smaller effect; inactive = flat or rising curve; cell line not stated here;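 also: intracellular cAMP measured with PDE inhibitor Ro 20-1724 present during compound exposure; potency is read from the fitted curve at half-maximal effect; % is scaled to controls: 0 for no effect and ±100 for the full control effect; nearly all actives have a fitted effect of over 65% in size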
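Cells, 2000/well, grown 16–24 h in DMEM 10% FBS with 0.5 mg/ml G418, then compounds plus […] (300 uM addition stock), 30 min at 37C. cAMP read by HTRF (cAMP-d2 and anti-cAMP antibody-K in lysis buffer) after 30 min RT.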
Menin-MLL FL inh: qHTS Assay for Inhibitors Targeting the Menin-MLL Interaction in MLL Related Leukemias: Competition With Fluorescein Labeled MLL-derived Peptide; Fluorescence polarization, fluorescein-MLL peptide displacement from menin; FP activity change, % at 61.4 µM; 290,000 tested, under 10 active; inconclusive = falling polarisation curve, or a change in total fluorescence; inactive = total fluorescence flat and polarisation flat or rising; no compound was filed as active; the % refers to the polarisation; negative = inhibition;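 also: % of control where 0% means no effect; inhibitors lower the polarisation; unlabelled MLL peptide was the positive control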
Starred values were filed as active, the others as inactive; ? = inconclusive; / = no result given; & = joins results of further samples; [ ] = remark or other dose. Outcome played no part in choosing rows; 2.1% or so of the library scored in one or more.

Sequence of screens – ClpP mod, TRPML1 ag, gsp agonist, TRPML1 blocker, gsp antagonist, Menin-MLL FL inh
> CN(C)CCCN(C(=O)c1ccc([N+](=O)[O-])o1)c1nc2cc3c(cc2s1)OCO3
→ -0.7%, 0.5, 9%, 17, -22%, -2.4
> COC(=O)C1=CN(C(C)C)C=C(C(=O)OC)C1c1cc(Br)c(OC)c(OC)c1
→ 6.3µM*, 1.9, -1%, 25, -13%, 2.9
> Cc1cc(OC(=O)c2ccccc2[N+](=O)[O-])c([N+](=O)[O-])c(=O)[nH]1
→ 0.7%, -0.3, ?, -11, -6%, 3.5
> NC(=O)c1ccc(NC(=O)COC(=O)C2COc3ccccc3O2)cc1 (configuration not stated)
→ -0.7%, -0.2, 15%[15.4 µM], -3, -4%, /
> Cc1sc2ncnc(N3CCC(C(=O)Nc4ccc(Cl)cc4Cl)CC3)c2c1C
→ -7.4%, 2.6, 15%, 4, ?, /
> CCN1CCN(C(=O)N(Cc2ccc(Cl)cc2)S(=O)(=O)c2ccc(C)cc2)CC1
→ -1.8%, -0.1, 1%, 3, -11%, /
> O=C1CCC2c3[nH]c4ccccc4c3CCN12 (configuration not stated)
→ -17%, 0.3, -12%, 14, /, /
> COc1cc(O)c(C(=O)CC(=O)c2ccncc2)c(OC)c1
→ /, -0.6, -2%, 19, 5%, /
> CC(NC(=O)COC(=O)c1ccccc1F)C1CC2CCC1C2 (configuration not stated)
→ 2.4%, -1.9, -5%, -1, 7%, /
> Cc1cccc(C2CC(c3ccc(Br)cc3)Nc3nc(N)nn32)c1 (configuration not stated)
→ 0.1%, 0.6, -1%, -10, -2%, -1.2
> CCCCn1c(N)c(N(CC(C)C)C(=O)CN(C)S(=O)(=O)c2ccc(C)cc2)c(=O)[nH]c1=O
→ 0.8%, 0.3, -3%[15.4 µM], -4, 8%, /
> COc1ccc2c(c1)c1c(c(=O)n(-c3ccc(OC)c(OC)c3)c(=O)n1Cc1ccccc1F)n2C
→ -16%, -0.1, /, -13, /, /
> Oc1ccc2ccccc2c1C=Nc1cc(C(F)(F)F)ccc1N1CCCC1
→ -1.0%, -0.5, 0%, 9, 4%, ?
> CCOc1nc(CC(C)C)c2c(c1C#N)CC(C)(C)OC2
→ /, 1.7, 2%[15.4 µM], -4, -16%, 1.3
> CCN(CC(=O)NCc1ccncc1)S(=O)(=O)c1ccc(OC)cc1
→ /, -0.4, -12%, 22, 6%, -5.8
> COc1ccc(-c2nc(CSCC(=O)NC3CCCc4ccccc43)c(C)o2)cc1 (configuration not stated)
→ ?, 0.4, 5%, 0, ?, 3.1
> O=C(Nc1ccc(O)cc1)c1ccc(NC(=O)c2cccs2)cc1
→ /, 0.1, 4%, -6, -25%, -7.9
> COc1ccc(NC(=O)CC(C)C)c([N+](=O)[O-])c1
→ 0.8%, 0.5, 0%[15.4 µM], 10, -18%, -0.9
> COc1ccccc1N(C)S(=O)(=O)c1ccc(C(=O)NNC(=O)c2ccccc2O)cc1
→ 1.1%, -0.4, -23%, -1, ?, /
> CCOc1cc(/C=C(/NC(C)=O)C(=O)O)cc(Cl)c1OCc1ccc(Br)cc1
→ 0.5%, /, 3%, /, -18%, -2.6
> CN1CCN(Cc2nc(-c3cccs3)no2)CC1c1ccccc1 (configuration not stated)
→ /, -0.2, -5%, 3, 11%, 6.2
> Cc1ccc(C(=O)Nc2ccc(CN3CCCCC3)cc2)c(C)c1
→ /, -0.2, 2%[15.4 µM], -4, -3%, -6.1
> Cc1nn(CC(=O)NC(=O)NC2CCCCC2C)c(=O)c(C#N)c1C (configuration not stated)
→ ?, 0.3, 2%[15.4 µM], -11, 3%, /
> CCCN1CCC(=O)N([C@H](COc2ccccc2)c2ccccc2)CC1
→ -3.4%&-4.4%, -0.4&-0.3, /, -6, 2%, -1.1
> O=C(COc1ccccc1F)OCc1cc(=O)n2nc(C3CCCCC3)sc2n1
→ -3.3%, 1.1, /, ?, /, /
> CSc1cccc(NS(=O)(=O)c2cn(C)cn2)c1
→ -2.1%, 1.1, 4%, 0, 1%, -0.9
> O=C(Nc1ccc(S(=O)(=O)N2CCCC2)cc1)C1CC(=O)N(CCc2ccc(F)cc2)C1 (configuration not stated)
→ -0.9%, 0.7, -32%[inhibitor], 27, -9%, /
> COCCCn1c(=O)cc(C)[nH]c1=S
→ 1.5%, -0.6, 27%, 18, 12%, -1.9
> CN1CCN(CCC(=O)Nc2ccccc2Cl)CC1
→ 0.5%, 6.8, 0%, 19, 14%, 1.2
> N#Cc1nc(Cc2ccccc2)oc1NCc1cccnc1
→ 28µM*, -0.5, -62%[inhibitor], -8, 11%, -2.8
> CCOc1ccc(/C=N/NC(=O)CN2CCCCC2)cc1OCC
→ /, 0.2, 2%, 8, -3%, -5.0
> CNC(=O)c1sccc1-n1cccc1
→ -5.0%, 1.9, -10%, -8, 1%, 0.2
> COc1ccc(O)c(/C=N/c2nc3ccccc3n2C)c1
→ 0.9%, 1.0, -2%[15.4 µM], 0, -3%, 1.6
> Cc1cc2cc3c(N)[nH]nc3nc2cc1C
→ -1.6%, -1.0, -80%, 6, -8%, 4.1
> CC(C)(C)C(=O)OCc1nc(-c2ccc(C(F)(F)F)cc2)cs1
→ 0.5%, 0.4, 1%[15.4 µM], 55, 12%, 1.7
> CC1=C(C(=O)OC2CCCCC2)C(c2ccco2)n2ncnc2N1 (configuration not stated)
→ -2.0%, 1.8, ?, -5, -2%, 6.0
> COC(=O)c1ccc2c(=O)n(Cc3ccc4c(c3)OCO4)c(SCC(=O)N3CCCC3)nc2c1
→ 0.3%, 0.2, -25%, 11, -14%, 3.1
> COc1ccccc1CNC(=O)COC(=O)/C=C/c1ccc2ccccc2n1
→ -4.5%, 4.8, -14%, 29, -2%, /
> CCOC(=O)NC(=O)C(=CNc1cccc(OC)c1)C(=O)NC(=O)OCC
→ /, -0.3, 5%[15.4 µM], -22, -2%, -0.3
> CC(=O)N=c1sc2cc(C)ccc2n1C
→ -6.4%, 0.3, -1%, 23, -1%, 1.5
> Cc1cccc(NC(=O)c2nc[nH]c2C(=O)N2CCN(c3ccccc3)CC2)c1
→ 6.3%, -0.3, /, -12, 0%, /
> CN(C)c1ccc(NC(=O)CSc2nc3ccsc3c(=O)n2CCCCCC(=O)O)cc1
→ 0.6%, 1.5, /, -5, /, /
> O=C(c1ccccc1)c1ccc(C(=O)O)c(C(=O)O)c1
→ -0.6%, /, -40%[inhibitor], /, 2%, /
> CN(C)CCCNC(=S)Nc1ccc(-c2ccccc2)cc1
→ -0.9%, /, -25%, /, 13%, 4.9
> COc1ccc(N/C=C2\CCc3ccccc3C2=O)cc1
→ 1.3%, 5.8, 9%, 26, -21%, ?
> COc1ccccc1CNC(=O)C1CCC(=O)N1C(C)C (configuration not stated)
→ /, -0.4, 19%, 19, 11%, -6.6
> COc1ccc(CCNC(=O)CSc2nnc(NC(C)=O)s2)cc1OC
→ -0.9%, -0.6, -46%[inhibitor], 37, 6%, 5.3
> COc1ccc(/C=C(\C#N)C(=O)OCC(=O)NC(=O)NCCC(C)C)cc1
→ -14%, 1.7, 2%, 6, 3%, 4.7
> Cc1onc(-c2ccccc2)c1C(=O)Nc1cccc(OC(C)C)c1
→ -1.2%, -0.6, 0%, 1, 3%, 6.7
> COc1ccc(OCC(=O)Nc2ccc(Cl)c(-c3nc4ncccc4o3)c2)cc1
→ -2.3%, 0.6, /, -5, /, /
> CCN1c2ccccc2NC2C1C(C(C)=O)C(=O)N2c1ccc(Cl)cc1 (configuration not stated)
→ -1.2%, 1.5, 10%, -5, -8%, ?
> Cc1ccc(Nc2nc(N)nc(CSc3nc4ccccc4s3)n2)cc1
→ -2.2%&-0.1%, 1.4&0.3, -56%[inhibitor], 37&-1, -4%, 1.3
> COc1cccc(NS(=O)(=O)c2ccc3[nH]cc(C(=O)N(C)C4CCCCC4)c(=O)c3c2)c1
→ -19%, 1.4, /, -2, /, /
> CCCCOc1ccc(S(=O)(=O)Nc2cccc(-c3ccc(N4CCOCC4)nn3)c2)cc1
→ -3.5%, -0.9, /, -12, /, /
> O=C(C=Cc1ccc2c(c1)OCO2)C1CC1
→ -2.7%, -0.7, 15%, 11, /, /
> COc1ccccc1-c1cn[nH]c1-c1ccc(OCc2ccccc2)cc1O
→ /, 1.5, -3%, 0, -11%, 3.6
> COc1ccc(CC(=O)N2CC(C)CC(C)C2)cc1 (configuration not stated)
→ -12%, -0.1, -19%, -15, 6%, 3.8
> CCOC(=O)Cc1csc(NC(=O)c2ccc(N3CCOCC3)cc2[N+](=O)[O-])n1
→ 0.3%, 0.0, -57%[inhibitor], 17, -23%, /
> COc1cc2nc(C3CC3)n(NC(=O)c3ccc(Cl)cc3)c(=O)c2cc1OC
→ 1.1%, 0.3, 0%, 11, -9%, -1.0
> CCC1(c2ccccc2)NC(=O)N(CC(=O)N2CCN(S(=O)(=O)c3ccccc3)CC2)C1=O (configuration not stated)
→ 1.1%, 1.5, -13%, 1, -9%, 1.6

Continuation.
Sequence of screens – ClpP mod, TRPML1 ag, gsp agonist, TRPML1 blocker, gsp antagonist, Menin-MLL FL inh
> O=C(NCCO)C1(c2ccc(Cl)cc2)CCCC1
→ 0.4%, -1.0, 3%, 27, -1%, 0.8
> CCN(C(=O)CN1CCCCCC1)c1c(N)n(Cc2ccccc2)c(=O)[nH]c1=O
→ -6.4%, 0.3, 18%, -9, 4%, /
> O=C1/C(=C/c2cccnc2)SC(=S)N1N1CCOCC1
→ -0.5%, 4.2, -27%, -17, 3%, 6.3
> Fc1ccc(C2C3=C(Nc4ncnn42)c2ccccc2OC3c2ccncc2)cc1 (configuration not stated)
→ -25%, 1.0, -1%, 14, 15%, -1.3
> CC(C)(C)NC(=O)c1ccc(Sc2ccccc2)c([N+](=O)[O-])c1
→ 0.9%, 1.6, -2%, 6, -17%, 4.2
> Cc1ccc(NC(=O)N2CC=C(c3c[nH]c4ccccc34)CC2)cc1Cl
→ -15%, 3.7, /, 5, /, /
> Cc1ccc2cc(CCNC(=O)c3ccco3)c(=O)[nH]c2c1
→ -13%, 0.0, 1%, -14, 8%, 1.2
> O=C(NCC(=O)N(c1cccnc1)C(C(=O)NC1CCCC1)c1cccs1)c1ccco1 (configuration not stated)
→ /, -0.1, -1%, -13, 15%, -1.8
> Cc1cccc(CN2CCN(C(=O)CCc3nnc(C4CCCCC4)o3)CC2)c1
→ -0.4%, 1.8, -13%, -17, 12%, -1.9
